Source: PubChem BioAssay (ICCB-Longwood Screening Facility, Harvard Medical School)
MgrA DNA FP = alters Staphylococcus aureus MgrA binding to DNA | fluorescence polarization | inhibition, %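 (about 10 µg/mL by stock and volumes)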 | AID 602314 | hit rate 0.13% among 84,000;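 active = above 50% in either of two replicates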;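 note: 0% = protein plus DNA without compound and 100% = DNA alone without protein; higher means less MgrA bound to DNA so lower polarization; one replicate is shown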
S aureus helic = blocks Staphylococcus aureus DNA helicase | inhibition, %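 (tested at about 80 µM)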 | hit rate 0.05% among 120,000 | AID 485395 | purified S. aureus helicase, fluorescence unwinding assay; about half of the hits fall short of the stated cut;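 active = both duplicates at 50% or more, or one of them with a favoured structure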;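 note: 0% = mean of negative control wells and 100% = mean of positive control wells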
Numbers without * were called inactive; . = no result given.

SMILES | MgrA DNA FP | S aureus helic
Cc1ccc(C(=O)Nc2ccc(S(=O)(=O)N3CCOCC3)cc2)cc1C | 4.3 | 19
NC(=O)COc1ccc(C23CC4CC(CC(C4)C2)C3)cc1 | -1.4 | 11
O=C1c2ccccc2C(=O)N1c1ccc(O)cc1 | . | 4
CCc1nc(SCC(=O)c2ccc(C)cc2)c(C#N)cc1C | . | -9
O=C(/C=C/c1cn(-c2ccccc2)nc1-c1ccc(F)cc1)N1CCOCC1 | -1.2 | -5
COC(=O)C1=C(C)NC2=C(C(=O)CCC2)C1c1cc2c(cc1Br)OCO2 (stereo not drawn) | . | -4
Cc1cc(C=Cc2ccc3cc(N(C)C)ccc3[n+]2C)c(C)n1-c1ccccc1 | 11 | .
CC(C)N1CN=C(Nc2nc3ccccc3o2)NC1 | -0.7 | -7
Cc1ccc(C)n1-c1ccc2c(c1)OCCO2 | 2.2 | -19
O=C(O)CCCC(=O)N1N=C(c2ccc(Br)cc2)CC1c1ccc(Cl)cc1 (stereo not drawn) | -0.4 | .
COc1ccc(N=Cc2ccc3ncccc3c2)cc1N | 36 | -495
C=CCN=c1scc(-c2ccc(O)c(C(N)=O)c2)n1N=C1CCCC1 | . | 7
CC(C)P(=O)(Cc1cccc(C#N)c1)C(C)C | . | 14
CC12CCC(C1)C(C)(C)C2OCC(O)CN1CCN(c2ccccc2F)CC1 (stereo not drawn) | . | 1
CCn1c(SCC(=O)N/N=C/c2cccs2)nc2ccccc21 | . | 8
Cc1ccc(-c2csc(NC(=O)COC(=O)C3CC(=O)N(Cc4ccco4)C3)n2)cc1 (stereo not drawn) | . | 3
O=C(O)COCC(=O)N1CCN(Cc2ccc3c(c2)OCO3)CC1 | . | 7
COc1ccc2nc(SCC(=O)NC3CCCCC3C)c(C#N)cc2c1 (stereo not drawn) | -0.7 | -1
NC(=S)c1cnn2c(-c3cccc(C(F)(F)F)c3)ccnc12 | 3.6 | .
CC(SCSC(C)C(=O)O)C(=O)O (stereo not drawn) | -0.3 | .
CCN=c1sc(CC(=O)O)c(-c2ccc(Cl)cc2)n1CC | . | -4
NC12CCc3c(no[n+]3[O-])C1(O)CC(c1ccccc1)=[N+]2[O-] (stereo not drawn) | -0.5 | .
CCNC(=O)CCSc1nnc(-c2ccccc2C)o1 | -8.7 | 7
CN1CCC(=NNC(N)=S)CC1 | . | 8
COc1cc(OC)c(C2=NOC(C(=O)Nc3cc(C)nn3-c3ccccc3)C2)cc1Cl (stereo not drawn) | -5.2 | 0
COc1ccc(NC(N)=O)cc1 | . | 6
Cc1cc(Oc2ncccc2[N+](=O)[O-])c2cc(Cl)ccc2n1 | -2.0 | .
C/C=C/C(=O)OCn1nnc2ccccc2c1=O | . | 10
Cc1cccc(-c2noc(CN(C(=O)CCC3CCCC3)C(C)C)n2)c1 | . | -6
Cc1csc2c(=O)nc3c(C#N)n[nH]n3c12 | . | 30
CCC(=O)Nc1nc2c(s1)C(=O)CC(c1ccc(OC)cc1)C2 (stereo not drawn) | . | -14
Nc1cc(=O)[nH]c(=O)n1Cc1ccncc1 | 1.0 | 18
Cc1ccc(C(C2C(=O)CC(C)(C)CC2=O)C2C(=O)CC(C)(C)CC2=O)s1 | 17 | 4
Cc1ccc(OCc2nnc(SCC(=O)N(C)c3ccccc3)n2-c2ccccc2)c2c1CCC2 | -0.7 | .
O=C(CCSC1=NCCS1)Nc1ccccc1Cl | -2.3 | 5
CC1=C(C(=O)OC2C3CC4CC(C3)CC2C4)C(CC(=O)O)C(=O)N1 (stereo not drawn) | 2.5 | 4
C[C@]12CCC(=O)C=C1CC[C@@H]1[C@@H]2[C@@H](O)C[C@@]2(C)[C@H]1CC[C@]2(O)C(=O)CO | -0.7 | .
COC(=O)Cc1nc(-c2ccccc2)cs1 | . | 5
CC(C)Oc1ccccc1OCCCCn1cncn1 | -0.5 | 1
COc1ccc(C2=C(C)C(N3CCC(C(=O)NCc4ccccc4)CC3)=NS2(=O)=O)cc1 | . | 2
O=c1c2ccc(C(F)(F)F)cc2nc2n1CCC2 | . | -6
Cc1ccc(NC(=O)CCCN2C(=O)/C(=C\c3ccc4c(c3)OCO4)SC2=S)cc1C | . | 4
Cn1cc(Br)c(-c2cccc(NC(=O)CCC(=O)O)c2)n1 | -1.4 | .
Cc1cc(NC(=O)C(CC(C)C)NC(=O)C2CCC(C)CC2)ccc1Br (stereo not drawn) | -2.8 | 0
c1nc(N2CCCCC2)c2c3c(sc2n1)CCC3 | . | 16
O=C(NCCC1=CCCCC1)c1ccc(F)c(S(=O)(=O)N2CCOCC2)c1 | . | 1
O=C(Sc1nnc(-c2ccco2)n1-c1ccccc1)c1c(F)cccc1F | . | -15
O=C(COc1ccccc1)Nc1nc(-c2ccc(Cl)cc2)cs1 | . | 12
CCCN(S(=O)(=O)c1ccc(S(=O)(=O)N(CC)CC)cc1)S(=O)(=O)c1ccc2c(c1)OCCO2 | . | -15
CCOc1ccc(C2c3c(oc4ccc(F)cc4c3=O)C(=O)N2CC2CCCO2)cc1 (stereo not drawn) | 2.4 | 1
Cc1ccccc1CN1C(=O)C(O)(CC(=O)/C=C/c2ccco2)c2ccccc21 (stereo not drawn) | 4.6 | 9
CCn1c2ccccc2c2nnc(N3CCC(C)CC3)nc21 | 1.5 | 7
CCN(C(=O)c1cnc2sccn2c1=O)c1ccccc1 | 1.8 | 17
O=C(C1CCCN(Cc2ccco2)C1)N1CCCCCC1 (stereo not drawn) | -11 | 3
Clc1ccccc1OCc1nnc(-c2ccccc2)o1 | 1.0 | -1
FC(F)(F)c1nc2ccccc2[nH]1 | -2.7 | .
O=C(COC(=O)Cc1n[nH]c(=O)c2ccccc12)Nc1ccccc1 | . | 1
CC/C(=N\NC(=O)c1cc2c(C)nn(-c3ccccc3)c2s1)C(C)C | . | -7
CCOC(=O)C1CCCN(C(=O)c2ccc3c(c2)N(C)CCS3)C1 (stereo not drawn) | . | 2
CC(C)=NNc1nc(Cl)c(C#N)c(Cl)c1Cl | -2.8 | .
Going on with the list.
SMILES | MgrA DNA FP | S aureus helic
COc1ccc(CN2C(=O)CSC2c2ccccn2)cc1 (stereo not drawn) | 2.2 | .
Cc1ccc2c(c1)c1c3n2CCN(C=O)C3CCC1 (stereo not drawn) | 1.7 | 7
CCCC(=O)NCCc1nc2ccccc2[nH]1 | . | 8
Cc1ccc(/C=N/n2cnnc2)o1 | . | -10
CNc1ccc(Cl)cc1C(=O)NCCc1ccccc1 | -2.1 | .
O=C1CN(C(=O)CSc2cccc[n+]2[O-])c2ccccc2N1 | . | -12
O=C1CN(C2c3ccccc3CC2NS(=O)(=O)c2ccccc2)CCN1 (stereo not drawn) | . | 5
CC(=O)N1CCN(C(=O)COC(=O)c2ccc(C(C)C)cc2)CC1 | . | -28
CCSC1(SCC)N=C(N)C2(C#N)C(c3ccc(NC(C)=O)cc3)C12C#N (stereo not drawn) | . | 23
O=S(=O)(NCc1ccco1)c1ccc(F)c(F)c1 | -0.9 | -9
O=C(Nc1cccc(C(=O)N2CCN(C(c3ccccc3)c3ccccc3)CC2)c1)c1ccco1 | -1.1 | 16
Cc1ccc(/C=C2/SC(=S)N(C(C)C(=O)O)C2=O)o1 (stereo not drawn) | 27 | 12
COc1cc2nc(-n3nc(C)cc3C)n3nc(-c4ccccc4)nc3c2cc1OC | 1.8 | -11
O=C(O)c1ccc(-c2ccco2)n1Cc1ccccc1 | . | -3
O=C(CO)c1c[nH]c2ccccc12 | -0.2 | 0

2 consecutive records already listed:
SMILES | MgrA DNA FP | S aureus helic
O=C(O)c1ccc(-c2ccco2)n1Cc1ccccc1 | . | -3
O=C(CO)c1c[nH]c2ccccc12 | -0.2 | 0

Following part.
SMILES | MgrA DNA FP | S aureus helic
CCOC(=O)C1CCCN(C(=O)c2ccc3c(c2)N(CC)CCS3)C1 (stereo not drawn) | . | 12
O=S(=O)(NCC1CC1)c1ccc(F)c(Cl)c1 | -3.3 | .
Cc1ccc(OCc2nnc(SCC(=O)CC(=O)Nc3ccccc3)o2)cc1 | -1.8 | 4
O=c1c(Cl)c(N2CCOCC2)cnn1Cc1ccccc1 | . | 16
Cc1nsc(-c2ccc(Cl)cc2)n1 | -2.7 | .
CC(C)=CC(=O)Nc1nnc(Sc2ccnc3cc(Cl)ccc23)s1 | -1.1 | .
CCOC(=O)c1oc2nc(-c3ccccc3)cc(C)c2c1NC(=O)Nc1ccc(Cl)cc1 | . | -39
Cc1[nH]n(-c2ccccc2)c(=S)c1C=Nc1cccc(Br)c1 | -1.5 | 0
CCSc1ncnc2sc3c(c12)CCCC3 | 4.8 | 14
Cc1ccc(NC(=O)Cn2c(=O)n(CCc3ccccc3)c(=O)c3ccccc32)cc1 | . | 15
CCCCCC(=O)Nc1ccc(C(=O)CSc2nnc3n2CCCCC3)cc1 | . | 6
CCN(CC)c1ncn(Cc2c(Cl)cccc2Cl)c2ncnc1-2 | -0.5 | 3
Cc1cccc(NC(=O)CC2S/C(=N/c3nccs3)N(C)C2=O)c1 (stereo not drawn) | -0.8 | 1
c1ccc(N2CCN(c3ccccc3)C2c2cccs2)cc1 | 0.2 | 15
N#CC(c1ccccc1)c1ccc(C(=O)c2ccccc2)cc1 (stereo not drawn) | 0.9 | .
CCc1ccc(NC(=O)CCNS(=O)(=O)c2cccc3nsnc23)cc1 | -0.8 | 13
CCOC(=O)N/N=C/c1ccc(OC)c(O)c1 | -0.8 | .
CCOC(=O)/C=C1\SCC(=O)N1CCOC(=O)c1c(-c2ccccc2)noc1C | . | -87
Cc1onc(-c2ccccc2)c1C(=O)N(Cc1ccc(N(C)C)cc1)C(C)C | 1.2 | .
COc1ccc(CCNC(=O)CSc2nc(-c3ccco3)cc(C(F)(F)F)n2)cc1OC | . | -27
CC(C(=O)Nc1ccnn1C(C)C)N(C)CC(=O)Nc1ccccc1Cl (stereo not drawn) | . | 15
CSc1nccc(-c2ccc(Cl)cc2)n1 | . | 11
N#CCCN(Cc1ccccc1)C(=O)C1CCN(c2nccc(C(F)(F)F)n2)CC1 | -2.3 | .
COc1ccccc1N1CCN(CCCC#N)CC1 | . | -15
NC(=O)N/C(CSCc1ccc(Cl)cc1)=N/O | -1.6 | .
CC(Sc1nc2ccccc2c(=O)[nH]1)C(=O)Nc1ccc2c(c1)OCO2 (stereo not drawn) | . | -10
CCOC(=O)N1CCC(N2Cc3cccc(C(=O)N4CCN(c5cccc(C)c5C)CC4)c3C2=O)CC1 | . | 13
COC(=O)c1cnc(N(C)Cc2ccccc2)c2ccccc12 | . | 2
CCC(C(=O)NCc1cccc(OC)c1OC)n1sc2ccccc2c1=O (stereo not drawn) | -1.2 | 9
COc1cc(OC)cc(C(=O)N2N=C(c3c(-c4ccccc4)c4cc(Br)ccc4[nH]c3=O)CC2c2ccco2)c1 (stereo not drawn) | 1.2 | .
CC(C)(C)c1ccc(C(=O)NCCNc2nccc(C(F)(F)F)n2)cc1 | 1.1 | .
N#Cc1c(NC(=O)c2ccccc2)oc(-c2ccccc2)c1-c1ccccc1 | 1.2 | 1
CCOc1ccc(S(=O)(=O)NCc2cccnc2)c2ccccc12 | . | 10
Cc1ccc(/C=C2/SC(N3CCCC3)=NC2=O)cc1 | . | -19
COC(=O)c1ccc(COC(=O)c2ccccn2)cc1 | 0.6 | -5
O=C(Nc1nc(-c2ccc(Br)cc2)cs1)c1cc(=O)c2ccccc2o1 | 0.5 | .
Cc1cc(C)nc(NC(N)=NCc2ccccc2Cl)n1 | -2.5 | 21
CC(C)(C)NC(=O)CSc1nc(N)c(C#N)cc1C#N | -1.8 | -7
COc1cc(/C=N/N=C2\NC(=O)C(Cc3ccc(Cl)cc3)S2)ccc1O (stereo not drawn) | -1.6 | -3
COCCCNC1=C(C#N)C(=O)NC(C2CC=CCC2)S1 (stereo not drawn) | 0.8 | .
COc1nc(F)c(F)c(Oc2ccc(C)cc2)c1F | . | 7
CC(C)(C)NC(=O)c1ccc(-n2nc(C(F)(F)F)c3c2-c2ccoc2CC3)cc1 | 0.6 | 13
CCN(CC)C(=O)Cn1c(=O)n(CC(=O)NCc2ccc(C)cc2)c(=O)c2sccc21 | . | 22
COc1ccc(C2=NN(C(=O)COn3nnc4ccccc43)C(c3ccco3)C2)cc1 (stereo not drawn) | . | 9
CCOC(=O)CCc1c(C)nn2cnnc2c1C | 0.2 | -18
COC(=O)C1CCN(C(=O)COC(=O)CCc2nc3ccccc3c(=O)[nH]2)CC1 | . | 0
O=c1[nH][nH]c2nc(C(F)(F)F)cc(C(F)(F)F)c12 | -1.6 | 1
O=C(O)c1ccc(CSc2ccc(Cl)cc2)cc1 | 1.9 | -12

In the list so far, these contain fluorine:
SMILES | MgrA DNA FP | S aureus helic
O=C(/C=C/c1cn(-c2ccccc2)nc1-c1ccc(F)cc1)N1CCOCC1 | -1.2 | -5
CC12CCC(C1)C(C)(C)C2OCC(O)CN1CCN(c2ccccc2F)CC1 (stereo not drawn) | . | 1
NC(=S)c1cnn2c(-c3cccc(C(F)(F)F)c3)ccnc12 | 3.6 | .
O=c1c2ccc(C(F)(F)F)cc2nc2n1CCC2 | . | -6
O=C(NCCC1=CCCCC1)c1ccc(F)c(S(=O)(=O)N2CCOCC2)c1 | . | 1
O=C(Sc1nnc(-c2ccco2)n1-c1ccccc1)c1c(F)cccc1F | . | -15
CCOc1ccc(C2c3c(oc4ccc(F)cc4c3=O)C(=O)N2CC2CCCO2)cc1 (stereo not drawn) | 2.4 | 1
FC(F)(F)c1nc2ccccc2[nH]1 | -2.7 | .
O=S(=O)(NCc1ccco1)c1ccc(F)c(F)c1 | -0.9 | -9
O=S(=O)(NCC1CC1)c1ccc(F)c(Cl)c1 | -3.3 | .
COc1ccc(CCNC(=O)CSc2nc(-c3ccco3)cc(C(F)(F)F)n2)cc1OC | . | -27
N#CCCN(Cc1ccccc1)C(=O)C1CCN(c2nccc(C(F)(F)F)n2)CC1 | -2.3 | .
CC(C)(C)c1ccc(C(=O)NCCNc2nccc(C(F)(F)F)n2)cc1 | 1.1 | .
COc1nc(F)c(F)c(Oc2ccc(C)cc2)c1F | . | 7
CC(C)(C)NC(=O)c1ccc(-n2nc(C(F)(F)F)c3c2-c2ccoc2CC3)cc1 | 0.6 | 13
O=c1[nH][nH]c2nc(C(F)(F)F)cc(C(F)(F)F)c12 | -1.6 | 1

The list is partial, so the mix of outcomes need not match the whole.
